Assay outcomes: PubChem BioAssay, several laboratories
Vif TR-FRET: inhibitors of Vif binding to APOBEC3G peptide, primary screen, biochemical, TR-FRET, GST-Vif 1-94, biotin-A3G peptide, dose response retest (AID 1117319). Virion infectivity factor (Human immunodeficiency virus type 1 group M subtype B (isolate …. TR-FRET GST-Vif / biotin-A3G peptide binding; higher % means a stronger effect; test concentration not given here; strong numbers were not always called active. one-dose inhibition, %; IC50 in µM for titrated hits. hit rate 0.57% among 260,000;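 active = above the screen mean plus three standard deviations and confirmed in dose response; inconclusive = results disagree or hit not tested in dose response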;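 note: Vif residues 1-94 fused to GST binding biotinylated APOBEC3G peptide 110-148; 0% = full assay without inhibitor and 100% = GST in place of GST-Vif; retest series ran down from 100 µM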
MLL AF4-AF9 inh: inhibitors of AF4 peptide binding to AF9, primary screen, biochemical, AlphaScreen, biotin-AF4 peptide, FLAG-AF9, single point; hit rate 0.47% among 350,000; inhibition, % at 10 µM; Protein AF-9 (Homo sapiens), P42568;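 active = every replicate reaching a set inhibition limit, whatever the replicate mean, cut at about 25% in these data; inconclusive = mean inhibition reaches that limit but some replicates miss it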;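 note: 0% = plate neutral control median and 100% = total signal loss; the record names both 10 and 1 µM as test concentration; the first replicate is given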
Target sequence (P42568 whole entry, looked up): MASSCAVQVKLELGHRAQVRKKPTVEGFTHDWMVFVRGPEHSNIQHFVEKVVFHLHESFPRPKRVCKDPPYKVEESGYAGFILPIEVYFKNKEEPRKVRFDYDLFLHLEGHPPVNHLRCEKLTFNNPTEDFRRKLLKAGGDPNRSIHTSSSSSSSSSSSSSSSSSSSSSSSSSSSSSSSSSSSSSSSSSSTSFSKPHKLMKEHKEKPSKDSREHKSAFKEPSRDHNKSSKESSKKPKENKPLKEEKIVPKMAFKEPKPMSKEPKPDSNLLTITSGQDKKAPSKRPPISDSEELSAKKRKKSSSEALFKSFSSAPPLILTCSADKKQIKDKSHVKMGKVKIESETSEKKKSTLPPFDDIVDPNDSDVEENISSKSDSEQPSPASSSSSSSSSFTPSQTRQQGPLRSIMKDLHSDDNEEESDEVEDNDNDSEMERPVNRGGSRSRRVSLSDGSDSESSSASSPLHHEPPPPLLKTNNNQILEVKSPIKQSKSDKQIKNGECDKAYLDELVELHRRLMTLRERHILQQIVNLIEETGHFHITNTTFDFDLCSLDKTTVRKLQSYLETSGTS
Beta cell apopt: inhibitors of cytokine-induced beta cell apoptosis, primary screen, luminescence | protection from apoptosis, % (no concentration beside the values) | INS-1E cytokine-induced death, ATP luminescence, 48 h; percent of positive-control rescue, neutral wells zero | hit rate 0.8% among 300,000 | AID 435005, 2010;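 active = all replicates at 75% or more, or half of them and the mean; inconclusive = half reach 75% but not the mean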;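 note: 0% = cytokine-treated negative control wells and 100% = positive control rescue; higher means more ATP so stronger rescue from cytokine killing; wells of about 40 µL received 100 nL stock; the first replicate is given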
Bfl-1 A1 inh: caspase 3/7 activation in MEF A1-2A-BIM cells, primary screen, A1 inhibitor project, cell-based, luminescence, HTS | Caspase-Glo 3/7 luminescence, 3 h; percent of clofoctol response, vehicle zero | caspase activation, % (concentration not given with the values) | hit rate 0.066% among 330,000 | AID 2462, 2010;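 active = over half of replicate activation scores above 10%, or exactly half above 10 with the replicate mean above 10; inconclusive = replicate mean below 10 yet half the replicates above 10; inactive = over half of replicates below 10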;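 note: wells of about 30 µL received 50 nL stock; many hits fall short of the cut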
Calb FLC: C. albicans growth inhibition with fluconazole, primary screen, CaCi-2 strain, Alamar Blue fluorescence | C. albicans CaCi-2 (fluconazole-resistant clinical isolate) + fluconazole, 48 h | growth inhibition, % (test concentration not listed) | hit rate 0.57% among 300,000;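 active = most replicates above 75%; inconclusive = exactly half above 75%; inactive = most below 75%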;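 note: all wells also contain fluconazole at 8 µg/ml as a sub-toxic cotreatment; 0% = median of DMSO wells and 100% = median of geldanamycin control wells; wells of about 8 µL received 7.5 nL stock; the first replicate is given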
T cruzi repl: inhibitors of intracellular T. cruzi growth, primary screen, luminescence, NIH3T3 host cells. hit rate 1.4% among 300,000. inhibition, % (test concentration not listed). T. cruzi beta-gal in NIH3T3, 90 h;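 active = mean inhibition across valid replicates above about 55%, limit read from the data; inconclusive = mean below that limit but half or more replicates reach it; inactive = mean below it, under half of replicates reach it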;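 note: signal also drops with host cell toxicity which is not excluded here; 0% = plate median of DMSO wells and 100% = zero luminescence signal; higher percent means less beta-gal luminescence so fewer parasites; stock transfer was 50 nL into about 50 µL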
rRNA inh HTS: reduced GFP signal of wild-type E. coli, primary screen, bacterial rRNA inhibitor project, GFP/RFP fluorescence, OD600, single point; E. coli WT GFP vs humanized-ribosome RFP mutants, 24 h; hits give low values; DMSO median 0, no signal -100; GFP signal change (wild-type ribosome), % (no concentration beside the values); hit rate 1.6% among 350,000;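 active = significant combined selectivity score with lowered wild-type GFP, culture density cut under 30%, mutant RFP and density less affected; inactive = any of these conditions unmet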; note: one replicate is shown; some compounds called inactive have numbers as strong as hits
RanGTP-Impb inh: inhibitors of RanGTP-importin-beta interaction, primary screen, biochemical, FRET, CFP-Ran, YFP-importin-beta, homogeneous; cell-free CFP-Ran/YFP-importin-beta FRET ratio; inhibition, % (test concentration not listed); hit rate 1.1% among 300,000;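 active = most replicates above 15%; inconclusive = exactly half above 15%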;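 note: 0% = DMSO wells and 100% = Ran loaded with GDP instead of GTP; wells of about 40 µL received 100 nL stock; the first replicate is given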
rRNA inh HTS OD600: recorded beside rRNA inh HTS, whose call it bears; OD600 change, %; measured here: OD600 growth;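 optical density of the mix in the first replicate; 0 = DMSO median and -100 = no signal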
rRNA inh HTS RFP: also measured in rRNA inh HTS; calls as there; RFP signal change, %; measured here: RFP humanized mutant strains;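 first replicate; 0 = DMSO median and -100 = no signal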
An asterisk follows results filed as active; ? = inconclusive; . = no result given; & = joins results of further samples.

mol	Vif TR-FRET	MLL AF4-AF9 inh	Beta cell apopt	Bfl-1 A1 inh	Calb FLC	T cruzi repl	rRNA inh HTS	rRNA inh HTS OD600	rRNA inh HTS RFP	RanGTP-Impb inh
Nc1ncc(-c2ccc([N+](=O)[O-])cc2)cn1	.	2.8	-1	-0.8	-2	1	2	-3	23	-1.1
CN(C(=O)CSc1nc(-c2ccc(C(C)(C)C)cc2)c(C#N)c(=O)[nH]1)C1CCCCC1	.	-0.4	2	1.0	44	15	-6	-5	1.3	?
Cc1ccc(Cn2c(CCNc3nc(-c4ccc(Cl)c([N+](=O)[O-])c4)cs3)nc3cc(C(=O)NCCCO)ccc32)cc1	.	.	-5	-1.3	1	44	-1	7	-1.7	-0.1
O=C(c1ccco1)N1CCN(C(=O)c2cc(Cl)nc3ccccc23)CC1	-3%	-35	0	0.7	2	-5	0	-1	1.5	-2.6
Cn1c(NCc2ccco2)nc2c1c(=O)n(Cc1ccc(Cl)c(Cl)c1)c(=O)n2C	19%	.	7	0.5	-14	.	.	.	.	0.3
O=C(Nc1cccc(S(=O)(=O)N2CCCCC2)c1)c1ccc(S(=O)(=O)C(F)F)cc1	-5%	3.8	-6	0.3	-14	11	-20	-18	-1.7	-3.8
CC(C)OC(=O)CSc1nc(N2CCOCC2)c2c(c1C#N)CC(C)(C)OC2	6%	1.2	6	-0.4	-10	2	8	5	-2.5	-3.4
CC(OC(=O)C1CC=CCC1C(N)=O)C(Cl)=C(Cl)Cl (stereo unspecified)	7%	.	-6	0.6	-6	-17	.	.	.	-1.3
O=C(Cn1cnc2c(NC(=O)OCc3ccccc3)ncnc21)NCCN1CCOCC1	.	-6.0	-5	1.0	.	.	21	27	-3.9	.
COc1ccc2c(c1)c(=O)oc1c(C)c(OC(C)C(=O)N[C@@H](Cc3c[nH]c4ccc(O)cc34)C(=O)O)ccc12 (stereo partly specified)	.	4.1	6	-0.2	5	1	-7	-5	-1.5	-3.4
COc1ccc(C2N(C(C)=O)CCCN2S(=O)(=O)c2ccc(C)cc2)cc1 (stereo unspecified)	.	0.5	-9	0.1	1	-4	-6	-9	1.3	-1.3
CC(CCc1ccccc1)NC(=O)/C=C/c1ccc(Cl)cc1 (stereo unspecified)	-3%	.	2	-1.1	-4	-2	.	.	.	?
COc1ccc(NS(=O)(=O)c2csc(C(=O)N3CCCC3)c2)c(OC)c1	.	-2.0	2	2.9	14	-6	6	-4	5.2	2.7
CCN(CC)CCNc1nc(-c2ccc(OC(F)F)cc2)c(C)s1	.	-1.9	6	-0.4	-56	50	0	-4	-6.8	-1.3
CS(=O)(=O)N1CCN(c2ccccc2NC(=O)Cc2ccccc2)CC1	17%	.	-3	-0.1	2	3	.	.	.	0.5
O=C(NCc1nc(-c2ccc(C(F)(F)F)cc2)no1)Nc1ccc(F)cc1F	-12%	0.3	-5	0.4	-1	10	15	11	1.5	-2.3
CCOC(=O)Cc1csc(NC(=O)Cc2ccccc2)n1	-1%	-1.4	-4	0.4	7	-8	-2	-1	0.3	-0.6
O=S(=O)(Nc1ccc(-c2cn3cccnc3n2)cc1)c1ccccc1	-11%	-4.7	-4	0.7	-8	-3	-1	4	-2.1	-1.7
O=C1NC2(CCCCCC2)C(=O)N1Cc1ccc(Br)cc1	0%	-12	.	0.1	-6	31	7	7	-0.4	2.7
Cc1sc2nc[nH]c(=S)c2c1-c1ccccc1	1%	2.3	4	0.4	-45	-4	-54	-67	-16	-2.5
CCC(C)[C@H](NC(=O)NCc1ccccc1)C(=O)O (stereo partly specified)	-4%	.	-2	0.3	9	-8	.	.	.	-1.5
CCN(CC(=O)NCc1ccc(F)cc1)S(=O)(=O)c1ccc(C)cc1	13%	-1.0	.	0.4	-2	3	0	3	0.4	7.8
O=C1c2ccccc2C(=O)N1CSc1nnc(Nc2ccccc2F)s1	.	-2.2	-2	0.3	11	-7	0	1	-0.3	?
C=CCn1c(-c2cc3cccc(OC)c3o2)n[nH]c1=S	.	-0.1	-3	-0.5	53	-7	-23*	-4.5*	-1.5*	-19
S=c1[nH]nc(-c2ccccc2)n1/N=C/c1cccc(Br)c1	4%	-12	0	1.3	16	17	-6	-2	-4.8	1.3
O=C(CCc1nnc(C2CCCCC2)o1)N1CCN(c2ccccc2F)CC1	-1%	2.6	2	-1.5	-9	10	1	2	-7.0	-5.2
Cc1[nH]ccc(=O)c1OCc1ccc(Cl)cc1	0%	.	-2	-0.2	-1	-7	.	.	.	0.3
Cc1ccccc1N1CCN(CCCN2C(=O)CC(=C(c3ccccc3)c3ccccc3)C2=O)CC1	-3%	.	-9	0.1	-4	10	.	.	.	1.9
c1cncc(CNc2ncnc3ccc(-c4ccoc4)cc23)c1	.	5.7	-11	-2.8	.	.	0	8	-2.0	.
COC(=O)c1cc(NC(=O)c2ccc(Cn3cc(Cl)cn3)o2)cc(C(=O)OC)c1	-3%	.	30	0.1	5	-10	.	.	.	4.1
O=C1[C@H]2CC3C=CC2(O3)[C@@H]2OCCCN12 (stereo partly specified)	.	0.2	-4	2.6	-7	-25	1	6	-4.9	2.7
COc1ccccc1N(C(=O)c1snc(C(N)=O)c1N)C(C(=O)NCCC(C)C)c1ccco1 (stereo unspecified)	2%&-4%	.	-8	1.5	-9	10	.	.	.	?
O=C1CC(c2ccc3c(c2)OCO3)c2cc3c(cc2N1)OCO3 (stereo unspecified)	0%	.	-11	3.0	-2	-1	.	.	.	-4.2
CCOc1ccc(S(=O)(=O)NCCC(=O)NCC(c2cccs2)N2CCOCC2)cc1 (stereo unspecified)	.	-2.7	-3	1.8	1	7	1	-6	2.9	2.3
CCCCCCCN1CCC(=O)N([C@H](CO)c2ccccc2)CC1	.	-24	-8	0.4	-6	-13	8	-6	8.3	-2.6
COc1ccccc1-c1cc(C(=O)N/N=C/c2ccc(C)s2)c2ccccc2n1	-3%	.	8	0.1	4	10	.	.	.	1.5
O=C1CNC(=S)N1Cc1ccccc1	23%	-0.7	-9	2.3	-39	-7	13	10	11	2.8
CC1CCCN(C(=O)Nc2cccc(NC(=O)N3CCCC(C)C3C)c2)C1C (stereo unspecified)	5%	.	-2	-0.5	-2	-10	.	.	.	-1.9
COC(=O)c1sccc1NC(=O)c1c(F)c(F)c(F)c(F)c1F	.	0.5	-2	-0.8	-14	-14	-11	5	-3.2	0.5
Cc1ccc(Cn2c(=N)n(CC(=O)c3ccccc3)c3ccccc32)cc1	.	8.0	98*	-0.5	-28	-2	-28	-47	23	0.9
COc1ccc(S(=O)(=O)N2CCCC2C(=O)Nc2ccc(O)cc2)cc1 (stereo unspecified)	13%	-2.7	1	-0.2	-2	-6	-1	-1	1.0	2.4
CCOc1ccc(C(=O)NC2CCN(S(C)(=O)=O)CC2)cc1	6%	.	-3	0.0	-2	-7	.	.	.	3.1
CC1CCCCN1C(=O)C1COc2ccccc2O1 (stereo unspecified)	.	-5.4	.	1.5	1	-2	5	0	-3.3	-8.1
COc1ccc2oc(C(=O)OCC(=O)NCc3ccco3)c(C)c2c1	1%	0.9	-5	0.1	0	-21	-3	3	0.0	4.5
Cc1nc(NC(=O)COC(=O)c2cc3c(s2)CCC(C)C3)c(Cl)cc1Cl (stereo unspecified)	.	2.4	-6	1.1	-18	-4	22	18	0.3	3.2
Cc1nnc(NC(=O)/C=C/c2ccco2)s1	?	.	-3	0.9	?	-6	.	.	.	-2.1
CCC(=O)Nc1cc(ON=C(C)C)cc([N+](=O)[O-])c1	6%	.	-5	-0.4	10	-6	.	.	.	4.6
COc1ccc(CN2CCN(S(=O)(=O)c3ccc(NC(C)=O)cc3)CC2)c(OC)c1OC	-5%	-15	-2	-0.6	0	-15	-5	-10	5.8	-5.1
Clc1ccc(-n2cnnn2)cc1	-4%	.	5	0.4	9	-11	.	.	.	0.8
O=C(CSc1nnc([C@@H]2CCCN2)o1)c1ccc(Cl)cc1	4%	.	8	0.3	22	-18	.	.	.	0.0

(further entries)
mol	Vif TR-FRET	MLL AF4-AF9 inh	Beta cell apopt	Bfl-1 A1 inh	Calb FLC	T cruzi repl	rRNA inh HTS	rRNA inh HTS OD600	rRNA inh HTS RFP	RanGTP-Impb inh
COc1cccc(N(CC(=O)NC2CCCC2)C(=O)CCCC(=O)Nc2ccccn2)c1	.	4.6	2	-0.7	-1	-7	0	6	-2.4	-3.6
COc1cccc(-c2nc(CS(=O)(=O)CC(=O)N3CCN(c4ccccn4)CC3)c(C)o2)c1	30%	-3.2	-4	-0.2	-2	-10	-6	-12	-0.2	-0.5
COc1ccc(Oc2nc3c(c(=O)n(C)c(=O)n3C)n2Cc2ccccc2)cc1	0%	.	9	-0.6	-2	-3	.	.	.	-1.1
Cc1noc(/C=C/N(C)C)c1S(=O)(=O)N1CCc2ccccc21	6%	2.2	-4	0.4	.	.	1	4	4.2	.
C=CCn1c(SCC(=O)NC2CCCC2)nc2scc(-c3ccco3)c2c1=O	7%	.	-12	2.4	0	21	.	.	.	-1.7
CCCCC1(C)Cc2ccccc2C(=S)N1 (stereo unspecified)	5%	.	7	0.7	-21	-1	.	.	.	-5.0

For reference, three of the compounds above.
mol	Vif TR-FRET	MLL AF4-AF9 inh	Beta cell apopt	Bfl-1 A1 inh	Calb FLC	T cruzi repl	rRNA inh HTS	rRNA inh HTS OD600	rRNA inh HTS RFP	RanGTP-Impb inh
Cc1noc(/C=C/N(C)C)c1S(=O)(=O)N1CCc2ccccc21	6%	2.2	-4	0.4	.	.	1	4	4.2	.
C=CCn1c(SCC(=O)NC2CCCC2)nc2scc(-c3ccco3)c2c1=O	7%	.	-12	2.4	0	21	.	.	.	-1.7
CCCCC1(C)Cc2ccccc2C(=S)N1 (stereo unspecified)	5%	.	7	0.7	-21	-1	.	.	.	-5.0

Only part of the results is shown. The share of hits here may be higher or lower than overall.
